Screening results from PubChem.
AID504770 – E. coli YBA685 growth inhibition, screen for V. cholerae RctB inhibitors | E. coli YBA685 rctB-dependent plasmid, OD600 growth, 3 h; hits give low values | z-score (test concentration not listed) | 130,000 compounds, 0.27% hits;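 active means z-score under -2 on both plates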;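 further: wells of about 30 µL received 100 nL stock; score is relative to mean and SD of the test wells; the first replicate is given; strong numbers were not always called active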
CapD inh – blocks the Bacillus anthracis CapD enzyme; purified CapD enzyme, fluorescence intensity read-out; hits give low values; some hits fall short of the stated cut; z-score (test concentration not listed); 140,000 compounds, 0.23% hits; AID 492967;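 active means z-score under -4 in either of two replicates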;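 further: stock transfer was 100 nL into about 40 µL; score is relative to mean and spread of the plate; one replicate is shown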
* = called active by the depositor; x = no result given. Some of the compounds tested, so the mix of outcomes need not match the whole.

Molecule	AID504770	CapD inh
N#Cc1c(Sc2ccccc2)nc(-c2ccccc2)nc1-c1ccccc1	x	-1
O=C(C1CC1)n1cc(C(=S)N2CCOCC2)c2ccccc21	-0.05	x
CCCCCCCOc1ccc(C(c2c(C)[nH]n(-c3ccccc3)c2=O)c2c(C)[nH]n(-c3ccccc3)c2=O)cc1	x	2.7
Cc1ccc(S(=O)(=O)N(Cc2ccc(-c3ccccc3)cc2)Cc2ccco2)cc1[N+](=O)[O-]	x	-0.91
COc1cccc(-c2nnc(-c3cc4cc(Br)ccc4oc3=O)o2)c1	x	0.67
COC(=O)c1sccc1NN1C(=O)c2ccccc2C1=O	-0.15	0.09
Brc1cccc(-c2noc(Cc3ccccc3)n2)c1	1.1	-0.29
COc1c(I)cc(Cl)c2cccnc12	-0.4	-0.005
CC(NC(=O)C(C)(C)C)c1nc2ccccc2[nH]1 (stereo not drawn)	0.55	0.24
O=C(NC1CCCC1OCc1ccccc1)c1cn[nH]c1 (stereo not drawn)	x	-0.65
COC(=O)c1cc(Cl)cc(Cl)c1O	0.9	3.2
Cc1ccc(OCCn2c(NC(=O)c3ccco3)nc3ccccc32)cc1	x	2.8
COC(=O)c1sccc1OC	0.7	0.4
Cc1cc(C)c2c(-c3ccccc3)[nH]nc2n1	-0.85	3.7
CCOC(=O)Nc1ccc2c(COC(=O)c3nc4nc(C)ccn4n3)cc(=O)oc2c1	-0.75	x
Cc1cccc(NC(=O)CSc2sc3c(=O)[nH]c(=O)[nH]c3c2C#N)c1	-0.25	x
CC(C)(C)c1cc(C(=O)CCN2CCOCC2)cc(C(C)(C)C)c1O	-0.65	0.18
Cc1cnc(NC(=O)c2c(O)c3cccc4c3n(c2=O)CC4)s1	x	-0.12
Cc1csc2nc(SCC(=O)NCc3ccccc3)[nH]c(=O)c12	-0.55	-0.24
CCOc1ccc(CC(=Nc2ccccc2O)C2=C(O)CC(C)(C)CC2=O)cc1OCC	0.2	-0.79
CCC(=O)NC1=NC(=O)/C(=C/c2cn(C(=O)CC)nc2-c2ccccc2)S1	-0.45	-0.07
Cc1oc(-c2ccccc2)nc1CC(=O)NCCc1c[nH]c2ccc(O)cc12	x	7.2
CCCSc1ncc(CO)n1Cc1ccccc1	-0.05	0.11
Cc1c(C(=O)Nc2cccc(C(F)(F)F)c2)sc2ncn(CC(=O)Nc3cccc(C(F)(F)F)c3)c(=O)c12	x	-0.74
COC(=O)c1c(OC)ccc(NC=C(C#N)C#N)c1OC	0.05	-1.5

(next part)
Molecule	AID504770	CapD inh
COc1ccccc1N(CC(=O)NC1CC2CCC1C2)S(=O)(=O)c1ccc(C)cc1 (stereo not drawn)	0.55	-0.06
COc1ccc(C2=NS(=O)(=O)N(C)C(C(=O)N3CCC(C)CC3)=C2)cc1OC	-1	-0.55
N#CCOc1nc(C(F)(F)F)nc2c1cnn2-c1ccccc1	0.3	x
Cc1ccc2nc(C(=O)O)c(C(=O)O)nc2c1	-0.3	x
Cc1cc(NC(=O)NC(=O)c2csnn2)no1	-1.1	-0.18
c1ccc(-c2cc(-c3cn4cccnc4n3)on2)cc1	1.2	43
NC(=O)C1CN(C(=O)CN2CSCC2=O)c2ccccc2O1 (stereo not drawn)	0.1	x
CN(C)c1ccc2sc(=S)[nH]c2c1	1	9.6
O=C(c1nc(-c2ccc(Cl)cc2)n2c1CCCCC2)N1CCCCCC1	-0.75	-0.39
O=C(N/N=C/c1c(Cl)cccc1Cl)c1cc2ccccc2cc1O	x	0.14
COc1cc(/C=C(\C#N)C(=O)N2CCOCC2)cc(OC)c1OC	0.1	-0.87
COc1ccc(OC)c(-n2c(SCC(=O)N3CCOCC3)nnc2-c2c[nH]c3ccccc23)c1	0.5	1.3
CCN1Cc2ccccc2CC1C(=O)O (stereo not drawn)	-1.3	x
O=c1[nH]c(-c2ccc3c(c2)OCO3)nc2ccccc12	0.8	8.6
CSc1ccc(/C=C(\C#N)C(=O)C(C)(C)C)cc1	-1.1	x
O=C(NNC(=O)c1cccc2ccccc12)OCC1CCC1	x	0.67
O=C(O)C12CC3CC(C1)CC(n1ncc(NCCc4ccccc4)c(Cl)c1=O)(C3)C2	0.95	60
Cc1cc(=O)oc2cc(OCC(=O)O)c(Cl)cc12	-1.4	10
CCN1CCCC1CNC(=O)C1c2ccccc2C(=O)N(C)C1c1ccc(OC)cc1 (stereo not drawn)	-0.55	-0.2
CCOC(=O)c1cc(C)n(-c2ccc(-c3csnn3)cc2)c1C	-0.8	-0.44
COc1cc2c(cc1OC)C(C)N(S(=O)(=O)c1ccc(-c3ccccn3)s1)CC2 (stereo not drawn)	-1.2	-0.55
O=C(CSc1nc(C2CC2)n(-c2ccccc2)n1)Nc1cc2[nH]c(=O)[nH]c2cc1Br	-4	x
COc1cc2cccc(OC)c(=O)c2c(O)c1OC	-0.35	x
Nc1c(C(=O)c2ccccc2)sc2snc(SCC(=O)c3ccccc3)c12	1.6	-0.12
COC(=O)c1cnc(Nc2cc(OC)ccc2OC)c2ccccc12	-1	1.3

Given with two lines to a compound: entries from further up
Results follow in this order: AID504770	CapD inh
> N#CCOc1nc(C(F)(F)F)nc2c1cnn2-c1ccccc1
 : 0.3	x
> Cc1ccc2nc(C(=O)O)c(C(=O)O)nc2c1
 : -0.3	x
> Cc1cc(NC(=O)NC(=O)c2csnn2)no1
 : -1.1	-0.18
> c1ccc(-c2cc(-c3cn4cccnc4n3)on2)cc1
 : 1.2	43

More structures
Molecule	AID504770	CapD inh
CCC1Sc2ccc(S(=O)(=O)CCC(=O)Nc3ccccc3C)cc2NC1=O (stereo not drawn)	-0.05	0.13
CC(C)(C)NC(=O)C12CC3CCC(CC(C3)C1)C2	0.1	0
CCOC(=O)C1C(=O)C=C(c2ccco2)CC1c1ccc(C)cc1 (stereo not drawn)	1.4	-1
CN(C)C(=O)c1ccccc1NS(=O)(=O)c1ccc(Br)cc1	1.1	0.095
COC(CNS(=O)(=O)c1ccc2c(c1)c(=O)n(C)c(=O)n2C)OC	-0.6	0.58
O=C1C=C(NCCc2ccccc2)CC(c2ccco2)C1 (stereo not drawn)	-0.6	-0.57
COc1ccc(C(=O)OCC(=O)NC2(C#N)CCCC2)cc1F	1.5	x
Cc1ccc(-n2nnc(-c3ccc(Cl)cc3)n2)cc1	-0.15	0.39
CCOCCn1cnc2sc(C(=O)NC3CCCCC3)c(C)c2c1=O	x	19
Cc1cccc(N2CC(O)(c3ccc(C)cc3C)[N+]3=C2SCCC3)c1 (stereo not drawn)	x	0
CCOC(=O)c1c(NC(=O)COc2ccccc2)sc(C(=O)Nc2cccc(Cl)c2C)c1C	x	0.17
CC(C)NC(=O)C1CC(=O)N(c2ccc(Oc3ccccc3)cc2)C1 (stereo not drawn)	-1	x
CC1=C(C(=O)Nc2ccc(C)cc2C)C(c2ccccc2Br)NC(=O)N1 (stereo not drawn)	x	-0.19
CCOc1cc(/C=C2/C(=N)N3C(c4ccccc4)=CSC3=NC2=O)ccc1OCc1ccccc1	x	-0.065
Cc1ccc(N=C(N)N=C(N)N)c(C)c1	x	0.53
O=C(CCSSCCC(=O)Nc1ccccc1)Nc1ccccc1	x	0.23
CC(Sc1nc(-c2ccccc2)cc(C(F)(F)F)n1)C(=O)NCCCn1ccnc1 (stereo not drawn)	-0.05	-0.17
Cc1ccc2[nH]c(=O)c3cc(C(=O)N4CCc5ccccc54)sc3c2c1	-0.15	0.62
CCc1ccc(C=C2C(=O)OC(C)(C)OC2=O)o1	-0.8	-1.4
C=CCOC1=NC2C(C(=O)N(C)C(=O)N2C)N1C (stereo not drawn)	1.7	-0.29
COc1ccc(C2Nc3ccccc3C(=O)N2NC(=O)c2ccc([N+](=O)[O-])cc2)cc1 (stereo not drawn)	x	-0.31
Cc1nc2cc(Cl)ccc2n1CO	-1.7	-0.08
Cc1nc(N2CCN(C)CC2)c2sc(=S)n(-c3ccccc3)c2n1	-0.4	-0.76
COc1ccccc1/C=C/c1ccccc1OC	-1.2	-0.85
CCOC(=O)C1(C)C=C(Nc2ccc(OC)cc2)C(=O)N1c1ccc(OC)cc1 (stereo not drawn)	x	-0.085

(cont.)
Molecule	AID504770	CapD inh
COc1ccc(C(=O)OCC(=O)N2CC3(C)CC2CC(C)(C)C3)cc1 (stereo not drawn)	-1	x
CN(CC(=O)NC1CCCCCC1)c1nnc(N2CCCC2=O)s1	1.2	-0.55
S=C1NC2=C(C(c3ccccc3)N1)N1CCC2CC1 (stereo not drawn)	-0.65	0.58
COc1ccc(C2(C(=O)O)CCOCC2)cc1	2.1	0.36
O=C(O)c1cccnc1SCc1ccccc1F	x	0.35
CCCC1(CC)NC(=S)N(c2cccc(C)c2C)N1 (stereo not drawn)	x	0.17
CCN(CC)S(=O)(=O)c1ccc2oc(C(=O)NCCCN3CCOCC3)c(C)c2c1	-0.3	-0.51
COc1cc(N2C(=O)CSCC2=O)c(Cl)cc1Cl	0.1	-0.56
Cc1ccc(S(=O)(=O)NC(=O)Nc2ccc(S(=O)(=O)N(C3CC3)C3CCN(C)CC3)cc2)cc1	x	-0.39
Cn1c(NCCO)nc2ccccc21	-0.15	0.25
COc1cc(C2C(C#N)=C(SCc3ccccc3)NC3=C2C(=O)CCC3)ccc1O (stereo not drawn)	-0.95	0.35
CCC(CC)NCC(=O)Nc1cc2oc3ccccc3c2cc1OC	0.3	x
Cc1nn(CCCC(=O)NCCN2CCOCC2)c(=O)c2c1sc1ccccc12	-0.6	4.7
Cc1ccc(C)c(C(C)Sc2ncccc2C(=O)O)c1 (stereo not drawn)	0.4	0.93
CCOC(=O)C1=C(C)Nc2ccccc2N=C1NC(=O)CCNC(=O)c1ccco1	-0.05	x
O=C(Oc1nsnc1N1CCCCC1)N(c1ccccc1)c1ccccc1	-0.25	3.7
NC(=O)c1cc(Br)cc(Br)c1	x	0.29
N#CC(C(=O)Nc1ccc(Cl)c(Cl)c1)=C1Nc2ccccc2N1	0.55	5.5
CCOC(=O)c1c(C)n(C)c2ccccc12	-0.65	0.12
COC(=O)c1c(S(N)(=O)=O)c(C)n(C)c1C	-0.4	0.02
CSc1nnc(COc2ccc(C(C)C)cc2)o1	-0.05	x
Cn1c(=O)c(=O)n(C)c2cc(S(=O)(=O)CCC(=O)NC3CCCCCCC3)ccc21	0.9	1.2
O=C(OCc1ccc(Cl)cc1Cl)c1ccncc1	-0.25	x
CC(C)CNc1cc(NCCO)c2c3c(onc13)-c1ccccc1C2=O	0.15	-0.38
COc1cc2c(cc1OC)C(C)N(C(=O)c1ccno1)CC2 (stereo not drawn)	-0.65	3.7

The last 7 compounds of the section above open the next one:
Molecule	AID504770	CapD inh
CCOC(=O)c1c(C)n(C)c2ccccc12	-0.65	0.12
COC(=O)c1c(S(N)(=O)=O)c(C)n(C)c1C	-0.4	0.02
CSc1nnc(COc2ccc(C(C)C)cc2)o1	-0.05	x
Cn1c(=O)c(=O)n(C)c2cc(S(=O)(=O)CCC(=O)NC3CCCCCCC3)ccc21	0.9	1.2
O=C(OCc1ccc(Cl)cc1Cl)c1ccncc1	-0.25	x
CC(C)CNc1cc(NCCO)c2c3c(onc13)-c1ccccc1C2=O	0.15	-0.38
COc1cc2c(cc1OC)C(C)N(C(=O)c1ccno1)CC2 (stereo not drawn)	-0.65	3.7
Cc1ccc(N(CC(=O)NCCCC2CCCCC23OCCO3)S(=O)(=O)c2ccccc2)cc1C (stereo not drawn)	x	-0.29
CCOC(=O)c1c(NC(=O)c2ccccc2)sc2c1CCN(C(=O)OCC)C2	x	4.5
Cn1ccnc1Sc1nc(Nc2ccccc2)nc(Nc2ccccc2)n1	x	0.45
O=C(O)CCc1ccc(-c2cccs2)n1-c1cccc(O)c1	0.05	x
COc1ccc(/C=C2/C(C)=C(C#N)c3nc(N)c(C#N)c(C)c32)cc1OC	x	0.13
CC(C)(C)c1ccc(S(=O)(=O)Nc2ccc3oc4c(c3c2)C(=O)CCC4)cc1	x	0.14
Cc1cc(OC(=O)/C=C/c2ccc(C)o2)n(Cc2c(Cl)cccc2Cl)n1	-1.8	x
CC(C)c1ccc(C(=O)OCC(=O)N2CCCCC2)cc1	-1	-0.53
CCCCN(C)Cc1ccncc1	-1.3	-0.39
COc1ccccc1N1CCN(C(=O)c2cccs2)CC1	x	0.46
CCN(CC)S(=O)(=O)c1ccc(C(=O)Nc2c3c(nn2-c2ccccc2C)CSC3)cc1	x	1.2
C/C(=N\O)c1sc2scc(C)c2c1C	-0.45	-0.28
O=C(NC1CCCCC1)c1c[nH]c2ccc(S(=O)(=O)Nc3ccc4c(c3)OCCO4)cc2c1=O	-1.1	0.05
CC1(C)CC(NC(=O)NC23CC4CC(CC(C4)C2)C3)CC(C)(C)N1	-0.95	-0.22
CC1=C(C(=O)OCc2ccccc2)C(c2ccc(Br)s2)NC(=O)N1C (stereo not drawn)	x	-0.56
N#CC1=C(N)Oc2n[nH]c(-c3ccccc3)c2C1c1cccc(OC(=O)N2CCOCC2)c1 (stereo not drawn)	x	0.44
c1ccc(NC(c2ccccc2)c2nnc(-c3ccccc3)o2)cc1 (stereo not drawn)	-0.05	0.23
Cc1[nH]c(=O)[nH]c1C	-0.15	x
Cc1ccc(S(=O)(=O)c2nc(NN)sc2Cl)cc1	0.15	-0.18
CN1CCC(NC(=S)NCCc2ccccc2)CC1	0.3	x
CCOC(=O)c1c(C)[nH]c(C(=O)CSc2ccc(Cl)cc2)c1C	1.6	-0.65
